Compound activity as filed in PubChem BioAssay.
VACV mCherry inh – inhibitors of vaccinia virus infection (mCherry reporter signal). Vaccinia virus mCherry reporter infection, fluorescence; about a quarter of the inactives have no number. Potency, µM (titrated, usually from 36.5 µM), for inactives: top-dose activity change, negative = inhibition, most hits filed as inhibitors. actives 0.63% (n = 310,000). AID 720579; active = well fitted inhibition curve with a large enough effect; inconclusive = small, poorly fitted or top-dose-only effect; inactive = no such curve, though single readings can be large or run the other way; tested in A549 cells; note: nearly all actives have a fitted effect of over 35% in size; inactives centre near -10
VACV Venus inh – inhibitors of vaccinia virus (Venus reporter); Potency, µM (titrated, usually from 36.5 µM), for inactives: top-dose activity change, negative = inhibition, most hits filed as inhibitors; Vaccinia virus Venus reporter expression, fluorescence; actives 0.46% (n = 330,000); active means well fitted inhibition curve with a large enough effect; inconclusive means small, poorly fitted or top-dose-only effect; inactive means no such curve, though single readings can be large or run the other way; tested in A549 cells; note: nearly all actives have a fitted effect of over 30% in size; inactives centre near -10
Active calls of the source: *; i = inactive; ? = inconclusive; · = not tested or not shown; & = joins results of further samples; [ ] = remark or other dose. % is set by controls: 0 for no effect and ±100 for the full control effect; potency is the fitted concentration of half-maximal effect.

SMILES	VACV mCherry inh	VACV Venus inh
CCCN(CC(=O)Nc1ccccc1OC)C(C)C(=O)NC(C)CCc1ccccc1 (stereo not drawn)	-3%	-15%
CCc1nn(CC(=O)NCc2ccco2)c(=O)c2cc3c(OC)cccc3n12	-4%	2%
Nc1ncn(CC(=O)c2ccccc2)n1	i	-7%
COc1ccc(CN(C)C(=O)Cc2ccsc2)c(OC)c1OC	i	-6%
Cc1ccc(Cl)c2sc(NC(=O)CS(=O)(=O)c3ccc(Cl)cc3)nc12	i	-15%
N#Cc1cc2ccc(N3CCOCC3)cc2cc1C#N	-9%	4%
CCOC(=O)c1ccccc1NC(=O)C1CCN(c2ncnc3c2nc2n3CCCCC2)CC1	-25%	-14%
CC(NC(=O)c1c(O)nc2ccccn2c1=O)c1ccccc1 (stereo not drawn)	-5%	-7%
CSc1ncccc1C(=O)Nc1cc(Cl)ccc1N1CCOCC1	-25%	-14%
CC(C)Sc1nnc(NC(=O)C2CC2)s1	-13%	-9%
Cc1nn2c(C)c(C(=O)NCc3ccco3)cnc2c1-c1ccccc1	-12%	-9%
CCCc1c(C)nc(N2CCN(c3cccc(OC)c3)CC2)[nH]c1=O	i	-5%
Cc1cc(=O)[nH]c(/N=C(\N)Nc2ccc(Oc3ccccc3)cc2)n1	-17%	-3%
NC(=O)C1CC(=O)N(c2ccc(OCc3ccc(F)cc3)cc2)C1 (stereo not drawn)	0%	0%
Cc1ccc(NC(=O)CN(C)C(=O)c2cn(Cc3ccccc3)nc2-c2cccnc2)cc1	i	-4%
O=C(COC(=O)Cn1cnc2ccccc2c1=O)NNC(=O)c1ccc(Br)cc1	-12%	-3%
O=C(NCCN1CCOCC1)c1cnn(-c2nccc(-c3cc4ccccc4o3)n2)c1C1CC1	-6%	-22%
C=CCS(=O)(=O)c1nc2ccccc2s1	·	?
CCCCCOc1ccc(C(=O)CCC(=O)NNC(=O)c2ccncc2)cc1	-5%	-2%
CCOc1ccc(C2NC(=O)c3ccccc3O2)cc1OCC (stereo not drawn)	i	-16%

Single entries from above.
In VACV Venus inh, `Cc1nn2c(C)c(C(=O)NCc3ccco3)cnc2c1-c1ccccc1` has -9%
In VACV mCherry inh, `CCCCCOc1ccc(C(=O)CCC(=O)NNC(=O)c2ccncc2)cc1` has -5%
In VACV mCherry inh, `O=C(NCCN1CCOCC1)c1cnn(-c2nccc(-c3cc4ccccc4o3)n2)c1C1CC1` has -6%

Next part:
SMILES	VACV mCherry inh	VACV Venus inh
COc1ccc(-c2ccc(N(C)C)cc2)cc1[C@H]1[C@H]2C=CC[C@@H](C)[C@@H]2C(=O)N1Cc1ccccc1	-5%	-7%
Cc1c(CN(C)C)c2c(n1C)C(=O)c1ccc(Br)cc1-2	-20%	-26%
O=C(NCCC1CCCCN1S(=O)(=O)c1ccccc1)C(=O)NCC1CCCO1 (stereo not drawn)	-5%	-6%
Cc1ccc(S(=O)(=O)N2CCCCC2)cc1C(=O)OCC(=O)N1c2ccccc2NC(=O)C1(C)C	-12%	-2%
COc1ccccc1C1CC(=O)NC(C)=C1C(=O)OCC(C)C (stereo not drawn)	·	?
Oc1ccccc1C=NN1CCCCCC1	-13%	-4%
CC1(C)CC(=O)C(N=Nc2ccc(OC(F)F)cc2)=C(O)C1	-12%	-6%
C=CCn1c(=O)c2c(nc(-c3ccc(S(=O)(=O)O)cc3)n2C)n(C)c1=O	-3%&-11%	-10%&-11%
O=C(Cn1cnc2ccccc2c1=O)NC1CCS(=O)(=O)C1 (stereo not drawn)	2%	3%
O=C(CCn1[nH]c(=O)c2ccccc2c1=O)NCCO	-13%	-3%
CC(C)CN=Cc1c(O)c([N+](=O)[O-])cc2oc3c(c12)CCCC3	i	-17%
CC1=C(C(=O)OCC(C)C)C(c2ccc(Br)s2)NC(=O)N1 (stereo not drawn)	i	-17%
COCCCNC(=O)c1ccc2c(c1)NC(=O)C(C(C)C)N2 (stereo not drawn)	16%	4%
CCOC(=O)Cc1csc(NC(=O)CSc2nnc(Cc3csc(N)n3)n2C)n1	·	2%
COc1ccc(C(=O)Nc2ccc3c(c2)OCCO3)cc1	i	-8%
Cn1c(N)c(C(=O)COC(=O)CNS(=O)(=O)c2ccc(Cl)c(Cl)c2)c(=O)n(C)c1=O	i	-6%
N=C1CCCN1c1ccccc1O	-14%	-14%
COc1ccc(S(=O)(=O)N2C[C@H]3CON(C)[C@H]3C[C@H]2c2ccc(-c3cc4ccccc4o3)cc2)cc1	5%	-24%
Cc1ccc(C2NC(=O)CCC2[N+](=O)[O-])cc1 (stereo not drawn)	0%	-2%
CCOc1ccc(NC(=S)N2CCC(N(C)CCN3CCOCC3)CC2)cc1	-13%	-5%
O=C(c1cccc(S(=O)(=O)N2CCOCC2)c1)N1CCN(c2ccccc2)CC1	-11%	-10%
CCC(NC(=O)CCc1c(C)c2cc3c(C)c(C)oc3cc2oc1=O)C(=O)N[C@@H](Cc1ccccc1)C(=O)O (stereo partly drawn)	-4%	1%
Cc1cc(C)nc(SCC(=O)c2ccc([N+](=O)[O-])cc2)n1	-11%	-12%
O=C(CSc1nc(=O)[nH]c2c1CCCC2)Nc1ccc(F)cc1F	i	-14%
CCc1c(C)c2nncn2[nH]c1=O	i	-3%
O=C(N/N=C\c1ccc(F)cc1)c1ccc(Cn2cc(Br)c([N+](=O)[O-])n2)o1	-9%	-23%
COc1ccc(-c2[nH]c(-c3ccc(O)cc3)nc2-c2ccccc2)cc1	-3%	-16%
CCOc1cc(/C=C2\N=C(SC)SC2=O)cc([N+](=O)[O-])c1OC(C)=O	-8%	-18%
CNS(=O)(=O)c1cc(OC)ccc1OC	i	1%
CN(CC(=O)Nc1sccc1C#N)S(=O)(=O)c1ccc(F)cc1	-20%	5%
O=C(c1ccc2c(c1)OCCO2)N(Cc1cccnc1)c1nc2ccc(F)cc2s1	-10%[7.34 µM]	-13%[7.34 µM]
CC(=Nc1ccccc1)C1=C(O)C(Cc2ccc(O)cc2)NC1=O (stereo not drawn)	-15%	?
CCc1nnc(NC(=O)CN2C(=O)NC3(CCCC3)C2=O)s1	-5%	-1%
COc1ccc(CNC(=O)c2sc(=O)n(Cc3ccccc3OC)c2C)cc1	15%	2%
c1ccc(C[C@H]2CNCCN2CC2(c3ccccc3)CC2)cc1	?	-8%
CC[C@]12c3[nH]c4cc(CCC(=O)N(C)C)ccc4c3CCN1C(=O)[C@@H](CC(=O)NCC13CC4CC(CC(C4)C1)C3)C[C@@H]2C(=O)N1CCN(C(=O)C2CC2)CC1	-17%	-29%
Cc1occc1C(=O)NNC(=S)Nc1ccccc1C(F)(F)F	?	-21%
COc1ccc(C2C3=C(CC(C)(C)CC3=O)Nc3c2c(=O)[nH]c(=O)n3Cc2ccccc2)cc1 (stereo not drawn)	·	-19%
COC(=O)C(/C=N/OCc1ccc([N+](=O)[O-])cc1)NC(=O)c1ccccc1 (stereo not drawn)	-7%[1.46 µM]	?
Cc1cccc(C)c1OC(=O)CSc1nnc(CNC(=O)c2ccccc2)o1	-6%	-2%
CCOc1cc(S(=O)(=O)NCc2ccncc2)ccc1Cl	i	-18%
COc1ccc(C(=O)N/C(=C/c2cccnc2)C(=O)NCc2ccco2)cc1OC	-21%	-7%
COc1cccc(-c2ccc(C#N)c(SCC(=O)NCCc3ccccc3)n2)c1	i	3%
CCC(C)[C@H](NC(=O)N1CC(=O)Nc2ccccc21)C(=O)N[C@@H](Cc1c[nH]c2ccccc12)C(=O)O (stereo partly drawn)	-22%	-14%
Cc1occc(=O)c1OC(=O)Nc1ccc(Cl)c(Cl)c1	i	?
COC1C=COC2(C)Oc3c(C)c(O)c4c(O)c(c(CN5CCN(C)CC5)c(O)c4c3C2=O)NC(=O)C(C)=CC=CC(C)C(O)C(C)C(O)C(C)C(OC(C)=O)C1C (stereo not drawn)	i	4%
O=C(NCCCc1cnc[nH]1)NCCCN(Cc1ccc(Cl)cc1)c1ccc(Br)cn1	-7%	-16%
O=C(COc1ccc2ccccc2c1)NNC(=O)c1ccccc1	-9%	-7%
Cc1ccc(-c2nc(-c3ccncc3)no2)cc1C	i	-10%
CC(=O)c1ccc(N2CCN(C(=O)c3cc(S(=O)(=O)N4CCOCC4)ccc3C)CC2)cc1	-25%	-12%

Continuation:
SMILES	VACV mCherry inh	VACV Venus inh
CCCOc1ccc(C2C(=O)N(C3CCCCC3)CC(=O)N2C2CCCCC2)cc1OC (stereo not drawn)	12%	4%
CCOC(=O)c1c(-c2ccc(OC)c(OC)c2)csc1NC(=O)c1ccc(F)cc1	-4%	3%
CCCCC/C=C\C/C=C\CCCCCCCC(=O)NCC(=O)O	-15%[3.33 µM]	-11%[3.33 µM]
O=C1CCC2S/C(=C/Nc3ccc(C(F)(F)F)cc3)C(=O)N12 (stereo not drawn)	-4%	-16%
CCN(CC)CCCOc1nc(C)nc2c1oc1ccccc12	3%	-7%
CCCCN1C(=O)NC(NC(C)=O)(C(F)(F)F)C1=O (stereo not drawn)	·	-3%
Cc1ccc(C)c(NC(=O)C(OC(=O)c2ccc(NC(=O)CC#N)cc2)c2ccccc2)c1 (stereo not drawn)	i	-11%
Cc1cc2nc(-c3ccc(Cl)cc3)c(Cc3ccsc3)n2c(C)c1Br	1%	0%
O=C(NCc1ccccc1Br)c1cnc2sc(N3CCCCCC3)nn2c1=O	-16%	-7%
Cc1ccccc1C(=O)N1CCN(S(=O)(=O)c2cccs2)CC1	i	-13%

The final six compounds of the part above are carried over, then new ones follow.
SMILES	VACV mCherry inh	VACV Venus inh
CCN(CC)CCCOc1nc(C)nc2c1oc1ccccc12	3%	-7%
CCCCN1C(=O)NC(NC(C)=O)(C(F)(F)F)C1=O (stereo not drawn)	·	-3%
Cc1ccc(C)c(NC(=O)C(OC(=O)c2ccc(NC(=O)CC#N)cc2)c2ccccc2)c1 (stereo not drawn)	i	-11%
Cc1cc2nc(-c3ccc(Cl)cc3)c(Cc3ccsc3)n2c(C)c1Br	1%	0%
O=C(NCc1ccccc1Br)c1cnc2sc(N3CCCCCC3)nn2c1=O	-16%	-7%
Cc1ccccc1C(=O)N1CCN(S(=O)(=O)c2cccs2)CC1	i	-13%
COc1ccc(CN2CCOc3ccc(C(O)c4cccnc4)cc3C2)cc1 (stereo not drawn)	-16%	-10%
CCOc1ncccc1C(=O)OCC(=O)c1ccccc1Br	-4%	1%
COC(=O)[C@@H](NC(=O)N1CCN(c2cccc(C(F)(F)F)c2)CC1)C(C)C	-25%	-15%
CCN(C(=O)COC(=O)c1cccnc1SC)C1CCS(=O)(=O)C1 (stereo not drawn)	-24%[1.46 µM]	-17%
CCCCc1ncc(CN2CCCC(C(=O)c3ccc(SC)cc3)C2)[nH]1 (stereo not drawn)	?	-3%
Cc1ccc(C)c(NC(=O)CSc2nc3nc(-c4cccs4)cc(C(F)(F)F)c3c(=O)[nH]2)c1	-24%	-16%
Cc1ccc(OCCOC(=O)C2CCN(S(=O)(=O)c3ccc(C)c(C)c3)CC2)cc1	i	-10%
CC1CCCCN1CCCNC(=O)c1ccc(N2CCCC2=O)cc1 (stereo not drawn)	i	-11%
O=c1[nH]c2ccc(NCc3ccc(-c4ccccc4F)o3)cc2[nH]1	?	-24%
CN(Cc1ccccc1F)C(=O)c1ccc(NS(=O)(=O)c2ccc3[nH]c(=O)[nH]c3c2)cc1	-15%	-15%
CC1(C)CC(=O)C(Sc2nnc(-c3ccc(O)cc3)n2CC2CCCO2)C(=O)C1 (stereo not drawn)	i	-10%
Cc1cc(C)n(-c2cc(N3CCOCC3)ncn2)n1	i	-9%
COC(=O)c1ccccc1-c1ccc(C=O)o1	-3%	-10%
COc1ccc(C#Cc2ccc3c(c2)O[C@H](CN(C)C(C)=O)[C@H](C)CN([C@@H](C)CO)S3(=O)=O)cc1	?	?
COC(=O)c1nc(-c2ccccc2)nc(-c2ccccc2)c1C(=O)OC	i	-9%
CCOc1ccccc1N1C(=O)CC(Sc2n[nH]c(-c3ccccc3)n2)C1=O (stereo not drawn)	i	12%
CC(=O)Nc1ccc(NC(=O)C(=O)c2cn(CC(=O)N3CCCCC3)c3ccccc23)cc1	-2%	-10%
O=C1NCCCN1Cc1ccc(F)cc1Cl	-17%	-7%
O=C(O)c1sccc1SCc1ccc(Cl)cc1Cl	i	-4%
C[C@H](CO)N1C[C@H](C)[C@@H](CN(C)C(=O)Nc2ccccc2)Oc2ccc(NC(=O)c3ccncc3)cc2C1=O	-22%	1%
Cc1ccc(OC(=O)C(F)(F)F)c2c1NCCC2	-5%	-5%
CC1CCCCN1C(=O)Cn1cc(C=O)c2ccccc21 (stereo not drawn)	1%	-6%
O=C(Nc1ccc(Br)cn1)c1cccc2ccccc12	i	?

Compound profiles (already shown):
C[C@H](CO)N1C[C@H](C)[C@@H](CN(C)C(=O)Nc2ccccc2)Oc2ccc(NC(=O)c3ccncc3)cc2C1=O as listed: VACV mCherry inh = -22%; VACV Venus inh = 1%
CC(=O)Nc1ccc(NC(=O)C(=O)c2cn(CC(=O)N3CCCCC3)c3ccccc23)cc1 as listed: VACV mCherry inh = -2%; VACV Venus inh = -10%

Not a hit list; about 0.88% have a hit in one of these screens.
